KCNQ2 enhance: KCNQ2 (rat) channel potentiation; AID 2239; B-score at 10 µM; CHO-K1 KCNQ2, FluxOR thallium flux fluorescence; hits give high values; 310,000 tested, 0.54% active; O88943;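 active = fluorescence ratio B-score at least 3 SD of library B-scores, with initial fluorescence B-score within 3 SD, cut at about 5.3 in these data; same plate scores as AID 2156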;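 note: B-score of peak minus minimum over baseline fluorescence ratio after K+ and Tl+ stimulus; positive B-score means potentiation of KCNQ2 with more thallium influx and brighter signal; only the inactives scoring about 0 or higher are listed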
Target sequence (O88943 whole entry, looked up): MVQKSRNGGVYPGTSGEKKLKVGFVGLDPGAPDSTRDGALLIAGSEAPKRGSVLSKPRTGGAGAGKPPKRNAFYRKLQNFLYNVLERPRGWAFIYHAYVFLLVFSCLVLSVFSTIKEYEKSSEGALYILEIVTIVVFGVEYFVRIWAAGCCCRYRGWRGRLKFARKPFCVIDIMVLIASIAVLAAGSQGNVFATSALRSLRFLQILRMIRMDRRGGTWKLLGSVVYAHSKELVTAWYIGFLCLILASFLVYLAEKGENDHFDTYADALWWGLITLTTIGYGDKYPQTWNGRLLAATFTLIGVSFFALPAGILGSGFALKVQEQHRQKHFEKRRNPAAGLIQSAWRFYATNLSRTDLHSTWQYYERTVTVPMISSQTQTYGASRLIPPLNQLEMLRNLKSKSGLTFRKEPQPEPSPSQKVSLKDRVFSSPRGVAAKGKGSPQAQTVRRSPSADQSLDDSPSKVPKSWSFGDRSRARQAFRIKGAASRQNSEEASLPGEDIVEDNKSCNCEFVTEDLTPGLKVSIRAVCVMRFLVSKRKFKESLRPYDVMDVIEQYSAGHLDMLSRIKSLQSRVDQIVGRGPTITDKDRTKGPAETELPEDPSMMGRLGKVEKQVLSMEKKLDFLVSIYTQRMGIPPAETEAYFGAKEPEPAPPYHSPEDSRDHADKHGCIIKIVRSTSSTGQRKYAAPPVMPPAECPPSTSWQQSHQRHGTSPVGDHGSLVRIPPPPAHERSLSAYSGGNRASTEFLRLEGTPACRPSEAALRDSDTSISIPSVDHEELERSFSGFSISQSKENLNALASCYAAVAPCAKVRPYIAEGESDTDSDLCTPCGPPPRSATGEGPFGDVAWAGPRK
KCNQ2 enhance baseline: also measured in KCNQ2 enhance; calls as there; B-score; compound at 10 µM; measured here: initial fluorescence intensity artifact check;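 brightness before thallium and not channel activity; 0 = typical well and far values either way flag optical interference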
Numbers without * were called inactive.

SMILES | KCNQ2 enhance | KCNQ2 enhance baseline
COc1ccc(C(CCO)NC(=O)c2cccs2)cc1OC (stereo not given) | 0.04 | -0.2
COc1ccccc1NC(=O)COC(=O)CCn1c(C)csc1=O | 1.8 | 0.75
CCc1cc2c(=O)n(Cc3ccco3)c(SCC(=O)NCC3CCCO3)nc2s1 (stereo not given) | 2.1 | -1.7
C=CCN(C(=O)c1csnn1)C(C(=O)NCc1ccccc1)c1c(F)cccc1Cl (stereo not given) | 0.01 | -0.36
CSc1nc(N2CCOCC2)nc2ccc(C)cc12 | 2.4 | 0
CSc1ccccc1NC(=O)C1CCCO1 (stereo not given) | 1.2 | 0.41
CCOC(=O)/C(C#N)=C/C=C1\C=Cc2ccccc2N1CC | 1.8 | -1.4
CCNC(=S)N/N=C(\C)c1cc2ccccc2o1 | 1.2 | 0.75
c1ccc(COc2ccc(OCCCCN3CCCC3)cc2)cc1 | 1.3 | -0.96
C=CCOC(=O)C1=C(C)Nc2nnnn2C1c1cccs1 (stereo not given) | 1.9 | 2.2
COc1ccc(C(=O)/C(=C/N(C)C)S(=O)(=O)c2ccccc2)cc1 | 0.75 | 0.77
COC(=O)c1[nH]c2ccc(C)cc2c1NC(=O)Nc1ccc(OC)cc1 | 0.4 | -2.6
Cc1ccc(SCC(=O)OCC(=O)N2CCN(C(=O)c3ccco3)CC2)c(C)c1 | 0.08 | 1.8
CSc1ncccc1C(=O)Nc1cc(C)ccn1 | 0.47 | 0
COc1ccc(-n2c(COc3ccc(C)cc3)nnc2SCC(N)=O)cc1 | 0.03 | 0.02
COCCNC(=O)CN1CCC(NC(=O)C(C)(C)C)CC1 | 0.67 | -0.86
CC(C)(C)NCc1cc(Cl)ccc1OCc1ccccc1F | 1.6 | 1.8
COc1cccc(NC(=S)N2CCC(NC(=O)c3ccco3)CC2)c1 | 0.03 | -0.77
O=C(CN1C(=O)C2CCCCC2C1=O)Nc1ccc(S(=O)(=O)Nc2ncccn2)cc1 (stereo not given) | 1.9 | -0.33
COc1ccc(NC(=O)C(=O)Nc2cccc3cccnc23)cc1OC | 1.4 | 0.78
CCOc1ccc(S(=O)(=O)N2CCC(C(=O)N3CCCCCC3)CC2)cc1C | 0.98 | -0.07
CC1=C(C(=O)OCC2CCCO2)C(c2ccsc2)C2=C(CC(C)(C)CC2=O)N1 (stereo not given) | 0.12 | -0.09
C/C(=N\NS(=O)(=O)c1ccc(C(C)(C)C)cc1)c1ccccc1 | 0.5 | 0.46
CC(=O)n1cc(/C=N/NC(=O)c2sc(C)nc2C)c2ccccc21 | 1.6 | -0.81
CC1CCN(C(=O)CSc2nc(C(C)C)nc3c2c(=O)n(C)c(=O)n3C)CC1 | 27* | -1.1*

Sorted by molar mass (lowest first): 16 of the compounds above
SMILES | KCNQ2 enhance | KCNQ2 enhance baseline
CSc1ccccc1NC(=O)C1CCCO1 (stereo not given) | 1.2 | 0.41
CSc1ncccc1C(=O)Nc1cc(C)ccn1 | 0.47 | 0
CCNC(=S)N/N=C(\C)c1cc2ccccc2o1 | 1.2 | 0.75
CSc1nc(N2CCOCC2)nc2ccc(C)cc12 | 2.4 | 0
CCOC(=O)/C(C#N)=C/C=C1\C=Cc2ccccc2N1CC | 1.8 | -1.4
CC(C)(C)NCc1cc(Cl)ccc1OCc1ccccc1F | 1.6 | 1.8
c1ccc(COc2ccc(OCCCCN3CCCC3)cc2)cc1 | 1.3 | -0.96
COc1ccc(NC(=O)C(=O)Nc2cccc3cccnc23)cc1OC | 1.4 | 0.78
COC(=O)c1[nH]c2ccc(C)cc2c1NC(=O)Nc1ccc(OC)cc1 | 0.4 | -2.6
COc1cccc(NC(=S)N2CCC(NC(=O)c3ccco3)CC2)c1 | 0.03 | -0.77
COc1ccc(-n2c(COc3ccc(C)cc3)nnc2SCC(N)=O)cc1 | 0.03 | 0.02
CC1=C(C(=O)OCC2CCCO2)C(c2ccsc2)C2=C(CC(C)(C)CC2=O)N1 (stereo not given) | 0.12 | -0.09
CC1CCN(C(=O)CSc2nc(C(C)C)nc3c2c(=O)n(C)c(=O)n3C)CC1 | 27* | -1.1*
CCOc1ccc(S(=O)(=O)N2CCC(C(=O)N3CCCCCC3)CC2)cc1C | 0.98 | -0.07
Cc1ccc(SCC(=O)OCC(=O)N2CCN(C(=O)c3ccco3)CC2)c(C)c1 | 0.08 | 1.8
C=CCN(C(=O)c1csnn1)C(C(=O)NCc1ccccc1)c1c(F)cccc1Cl (stereo not given) | 0.01 | -0.36

The listing continues:
SMILES | KCNQ2 enhance | KCNQ2 enhance baseline
CC(C)(C)c1ccc(-c2nnc(N)s2)cc1 | 1.1 | 0.18
O=C1CN(C(=O)/C=C/c2ccc(Cl)cc2Cl)CCN1 | 0.39 | -0.13
CCC(=O)Nc1cc2c(cc1C(=O)c1ccccc1)OCCO2 | 2.2 | 0.27
CC(=O)Nc1ccc(NC(=O)COc2ccc(Br)cc2C)cc1 | 1.1 | -0.39
COc1ccc(N(CC(=O)N2CCCCCC2)S(=O)(=O)c2ccccc2)cc1 | 0.07 | 0.61
COc1ccccc1NC(=O)Nc1nnc(-c2ccco2)s1 | 0.48 | -0.42
CSc1ccc(CN2CCN(C(=O)c3ccncc3)CC2)cc1 | 0.15 | 0.99
O=C(NCCc1nc2ccccc2[nH]1)/C(=C/c1ccc2c(c1)OCO2)NC(=O)c1ccccc1Cl | 0.43 | -1.6
O=C(O)Cc1ccc(NC(=O)C2CCCCC2C(=O)O)cc1 (stereo not given) | 1.3 | -0.43
O=C(O)c1ccc(N=Nc2c(O)[nH]c3ccccc23)cc1 | 3.1 | 0.53
COc1ccc(/C=N/NC(=O)c2ccc(NC(=O)c3ccccc3Br)cc2)cc1 | 0.53 | -1.5
O=c1[nH]c(/C=C/c2cccc([N+](=O)[O-])c2)c([N+](=O)[O-])c(=O)[nH]1 | 1.3 | 0.4
CCn1c(C)c(P(=O)(N2CCOCC2)N2CCOCC2)c2ccccc21 | 0.01 | 0.01
Cc1nnc(SCC(=O)N2CCCC2)n1-c1ccc(F)cc1 | 0.36 | 0.87
Cc1ccccc1Nc1c(-c2cccnc2)nc2ccccn12 | 3.4 | 0.07
Cc1ccc(NC(=O)CSc2nnc(C(F)(F)F)n2C)cc1[N+](=O)[O-] | 1.2 | -0.58
CC1CC(C)CN(C(=O)C2CCN(S(=O)(=O)c3cccc4cccnc34)CC2)C1 (stereo not given) | 3.2 | -1.9
CCc1ccc(-c2nc(SCC(=O)NC3CCCC3)n[nH]2)cc1 | 0.13 | -0.47
Cc1sc2ncnc(N3CCCCC3)c2c1C | 1.4 | 0.11
Cc1c(NS(=O)(=O)c2ccc(NC3CCCC3)c([N+](=O)[O-])c2)c(=O)n(-c2ccccc2)n1C | 0.01 | -0.1
CCCOc1ccc(C(=O)C(c2ccccc2)N2CCOCC2)cc1 (stereo not given) | 0.12 | 3
CC(CCc1ccccc1)NC(=O)C(=O)Nc1ccccc1 (stereo not given) | 1.5 | 0.38
COc1ccc(O)c(/C=N/NC(=O)CCC(=O)Nc2cccc(C)c2)c1 | 0.01 | 0.12
O=C(CCc1ccccc1)Nc1nc2n(n1)C(c1ccccc1)CC(=O)N2 (stereo not given) | 1 | -0.26
CN(C)c1ccc(C(=S)N2CCN(S(=O)(=O)c3ccccc3)CC2)cc1 | 0.07 | -1.7
New compounds follow.
SMILES | KCNQ2 enhance | KCNQ2 enhance baseline
COC(=O)c1cc(=O)nc2sc(-c3ccccc3)nn12 | 0.08 | 0.2
CC(CCc1ccccc1)NC(=O)CN1CCN(Cc2ccc(Cl)cc2)C1=O (stereo not given) | 0.04 | 0.77
O=C(CSc1nc2c(c(=O)[nH]1)CCC2)Nc1ccc(F)cc1 | 2.4 | -0.02
O=C1CSC(=Nc2ccc(O)cc2)N1 | 0.36 | -0.79
O=C(COc1ccc(Br)cc1Cl)N1CCN(c2ccccn2)CC1 | 0.29 | -0.9
COc1ccc(-c2csc(NC(=O)CN3C(=O)C4CCCCC4C3=O)n2)cc1OC (stereo not given) | 3.6 | -2.3
CCCSc1cc(Cl)nc(N)n1 | 0.32 | 0.4
CN(C)S(=O)(=O)c1ccc(C(=O)Nc2ccc3ncccc3c2)cc1 | 0.01 | 2.3
COC(=O)c1ccc(C2/C(=C(/O)c3ccc4c(c3)CC(C)O4)C(=O)C(=O)N2Cc2cccnc2)cc1 (stereo not given) | 2 | -1
COc1ccc(CCNC(=O)Cn2c(=O)n(CC3CCCO3)c(=O)c3ccccc32)cc1OC (stereo not given) | 0.3 | -0.25
O=C(Cc1cccc2ccccc12)Nc1nnc(-c2cccc([N+](=O)[O-])c2)s1 | 0.35 | 1.4
O=C(Oc1ccc(NC2=NS(=O)(=O)c3ccccc32)cc1)c1cccnc1 | 1.4 | 1.3
COc1cc(CO)cc(Br)c1OCC(=O)N1CCCCC1 | 1.6 | 1.1
COc1ccc(CNC(=O)c2cccnc2)cc1 | 0.21 | 0.98
O=C(NCc1ccon1)C1CCC(=O)N(Cc2cccc(C(F)(F)F)c2)C1 (stereo not given) | 0.87 | 0.04
CCOC(=O)N1CCC(NC(=O)c2ccc(CS(=O)c3cccc(Cl)c3)o2)CC1 (stereo not given) | 0.09 | 0.92
COc1cc(NC(=S)N2CCC(C(N)=O)CC2)cc(OC)c1 | 0.34 | -0.88
O=C(O)CCCC(=O)Nc1ccc(C(=O)N2CCCCC2)c(Cl)c1 | 0.52 | 0.17
O=C(Cn1c(=O)oc2cc(S(=O)(=O)N3CCCCCC3)ccc21)NC1CCCCC1 | 1.6 | 0.11
Cc1cc(=O)oc2cc(OCC(=O)NCc3ccncc3)ccc12 | 1.1 | 0.19
COc1ccc(-c2cc(COc3ccccc3)on2)cc1 | 1.6 | -0.38
COc1ccc(C(=O)NCCc2c[nH]c3ccccc23)cc1[N+](=O)[O-] | 0.38 | 0.5
CN1CCOCCOc2ccccc2OCCOCC1 | 0.19 | -0.97
CCCn1c2ccc(C)cc2c2n[nH]c(=S)nc21 | 0.65 | 0.15
CCOc1ccc(S(=O)(=O)Nc2ccc(C(=O)N3CCC3)cc2)cc1 | 1.6 | 2
Following part:
SMILES | KCNQ2 enhance | KCNQ2 enhance baseline
C/C(=N\NC(=O)c1ccncc1)c1cccnc1 | 0.52 | -1.2
CCN(Cc1ccc(NC(C)=O)cc1)CC1CCCN(CCc2cccc(F)c2)C1 (stereo not given) | 0.75 | 0.04
Cc1n[nH]c(C)c1S(=O)(=O)N(CC(=O)NC1CCCC1)c1ccc(C(C)C)cc1 | 1.4 | -0.72
COc1ccc(NC(=O)CN(C)C(=O)c2cc3c(s2)CCCCC3)cc1 | 0.65 | -0.87
CCCCNC(=O)NS(=O)(=O)c1ccc(NC(=O)CCC(=O)c2cccs2)cc1 | 2 | 0.8
Cc1nnc(NC(=O)CSc2nnnn2Cc2ccccc2)s1 | 0.8 | -0.09
CCOC(=O)Cc1csc(NC(=O)c2ccc(Cl)s2)n1 | 0.01 | -0.02
CCOc1ccc(/C=N/NC(=O)c2cc3c(OC)cc(OC)c(OC)c3[nH]2)cc1 | 0.32 | 0.44
O=C(O)c1cnn(-c2nc(-c3cccc([N+](=O)[O-])c3)cs2)c1C(F)(F)F | 1.8 | -0.72
CCCNS(=O)(=O)c1ccc(-n2cnnn2)c(OC)c1 | 0.31 | 0
COc1ccc2nc(SCC(N)=O)cc(C)c2c1 | 1.2 | 0.62
COc1ccc(-n2c3c(cc(C(=O)NNc4ccccc4)c2=O)C(=O)CC(C)(C)C3)cc1 | 1.2 | 0.02
O=C(Nc1cccc(F)c1)N1CC=C(n2c(=O)[nH]c3ccccc32)CC1 | 0.15 | 1.8
COc1ccc(OC)c(CNC(=O)C2CCN(S(C)(=O)=O)CC2)c1 | 0.21 | -0.49
CN(C)c1nc(N2CCN(c3ccc(F)cc3)CC2)c(C#N)c(=O)o1 | 0.19 | 0.59
COC(=O)[C@H]1C[C@@H]1[C@H](N)c1ccccc1 | 0.63 | 1.6
Cc1csc(SC(C)C(=O)Nc2ccc3c(c2)OCCO3)n1 (stereo not given) | 0.58 | -0.81
CN(CCCNC(=O)COc1cc(=O)n(C)c2ccccc12)Cc1ccccc1 | 1.2 | -0.52
O=C(CN1CCN(S(=O)(=O)N2CCCCCC2)CC1)Nc1ccc(F)cc1 | 0.18 | 0.59
CCn1nnc(NC(=O)c2cc(Cl)c(OC)c(Cl)c2)n1 | 3 | -0.11
CC(C)(C)c1ccc(C(=O)N2CCC(NC(=O)c3ccccc3)CC2)cc1 | 0.61 | 1.2
C=CCn1sc(=N)c(C#N)c1N | 0.71 | -0.26
CCOC(=O)CC1C(=O)NCCN1C(=S)Nc1ccccc1 (stereo not given) | 0.12 | 0.65
O=C1c2ccccc2NC2(CCCC2)N1NS(=O)(=O)c1ccccc1 | 0.14 | -3.5
C=CCc1c(C)nc(C)nc1N/N=C/c1ccccc1 | 3.1 | 4.4
Next compounds.
SMILES | KCNQ2 enhance | KCNQ2 enhance baseline
COc1ccc(-c2csc(Nc3ncccc3C)n2)cc1OC | 0.03 | 1.2
O=C(CSc1nnc(COc2ccccc2Cl)o1)NC(=O)NCc1ccco1 | 0.71 | -0.4
COc1cccc(C(=O)Nc2cccc3c2ccc2cccn23)c1 | 2 | 0.01
O=C(CN1C(=O)CCC1=O)Nc1nc2c(F)cc(F)cc2s1 | 0.56 | -0.14
COCCNC(=O)C(C(=O)c1ccc(F)cc1)n1cc(C)ccc1=O (stereo not given) | 1.4 | -0.07
CC(=O)Nc1ccn(Cc2c(F)cccc2Cl)n1 | 0.06 | -1.1
Cc1c(C(=O)NC2CCOC2)oc2c(F)cccc12 (stereo not given) | 0.19 | -0.02
COc1ccc2oc(=O)c(N3C(=O)c4ccccc4C3=O)cc2c1 | 0.36 | -0.73
CCOc1ccc(NC(=O)CC2NCCNC2=O)cc1 (stereo not given) | 0.75 | -0.05
CCCC(=O)Oc1ccc(C2NC(=O)c3ccccc3O2)cc1OC (stereo not given) | 0.58 | -2.6
CCn1c(SCc2cccc(F)c2)nc2c(c1=O)SCC2 | 0.86 | 0.8
N#CC(C#N)=CNc1cccnc1 | 0.02 | -1.9
CCC(=O)N1N=C(c2cccc(NS(C)(=O)=O)c2)CC1c1cccs1 (stereo not given) | 1.6 | -0.28

Screening data from PubChem.

These rows are one share of the data; rates above refer to the full screens.
